Mtb betalactam: beta-lactam sensitization of Mtb H37Rv | M. tuberculosis H37Rv growth with meropenem, percent inhibition; hits of this screen are not shown here | inhibition, % at 25 µM | 330,000 tested, 0.27% active;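 active means about 74% or more and at least 40 points above the plate without the antibiotic, then above 30% in a dose series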;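 further: growth measured after seven days incubation then overnight dye step; 0% = bacteria only wells and 100% = bacteria with antibiotic; twin plates without the antibiotic show which effects depend on it; some results filed as inactive read as strong as hits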
Active calls of the source: *. A portion of the library; rates above refer to the full screens.

compound,Mtb betalactam
COc1cccc(NC(=O)CSc2cccc[n+]2[O-])c1,0
O=C(CN1C(=O)NC2(CCCCC2)C1=O)N1CCN(C(=O)c2cccs2)CC1,-2
O=C(COC(=O)c1ccccc1)NC12CC3CC(CC(C3)C1)C2,-3
COc1ccccc1CN(C)C(=O)CN1CCN(CC(=O)Nc2ccccc2Cl)CC1,-5
O=C(CCNC(=O)c1ccc(Cl)cc1)NC1CCCc2ccccc21 (stereo not drawn),-4
Cc1ccc(C(=O)N2CCN(c3ccccn3)CC2)cc1C,-2
CC(NC(=O)C1CCN(C(=O)c2cccs2)CC1)c1ccc(S(N)(=O)=O)cc1 (stereo not drawn),2
COc1ccc(-n2nnc3c(SCC(=O)N4CCCc5ccccc54)ncnc32)cc1,-2
COc1ccc(-c2cccc(-c3nc4ccc(Cl)cn4c3NC3CCCCC3)c2)cc1,1
Cc1ccc(NC(=O)C2CC2)cc1S(=O)(=O)N1CCOCC1,1

compound,Mtb betalactam
CC(SC1=Nc2ccccc2C2CC=NN12)C(=O)NC1(C#N)CCCCC1 (stereo not drawn),-4
O=C(NCc1cccc2ccccc12)c1cccs1,4
O=C(O)Cc1sc(Nc2cccc3ccccc23)nc1-c1ccccc1,0
CCCn1c(SCC(=O)NCC(=O)Nc2ccc(F)c(F)c2F)nc2ccccc2c1=O,4
O=C(NCC(=O)N1CCCC(C(F)(F)F)C1)c1ccco1 (stereo not drawn),-6
CC(=O)C[C@@H](O)CC(=O)[C@@H]1OC(=O)[C@@H](C)CCCCc2ccccc21,6
CC(=O)c1c(C)[nH]c(C(=O)COC(=O)c2ccc(C)s2)c1C,-5
COc1ccccc1C(=O)NC(=O)COC(=O)c1oc2ccccc2c1C,-6
COc1cc(/C=C/C(=O)OCC(=O)NCC(=O)Nc2cccc(C)c2C)ccc1OC(F)F,-1
O=C(COC(=O)c1cc(S(=O)(=O)N2CCCC2)ccc1O)Nc1ccc(SC(F)F)cc1,0

compound,Mtb betalactam
CCc1noc(C)c1C(=O)OCC(=O)Nc1nc(-c2ccc(F)c(F)c2)cs1,2
Cc1cc(Cl)cc(C)c1OCCOCCNCc1ccccc1,6
CC(C)COC(=O)COc1cc(Cl)c(Cl)cc1Cl,87
Cc1ccccc1-c1nc2sc(C)c(C)c2c(=O)o1,61
COc1ccc(NC(=O)N(C)C[C@H]2Oc3ccc(NC(=O)CCN4CCOCC4)cc3C(=O)N([C@@H](C)CO)C[C@H]2C)cc1,4
Cc1ccc(-c2nc(CC(=O)Nc3cccc(S(=O)(=O)NC4=NCCC4)c3)cs2)cc1,-3
COc1ccc(-c2cc(=O)c3c(O)cc(O)cc3o2)cc1,0
O=Cc1ccc(C(=O)OCC(=O)NCc2ccco2)cc1,-3
NC(=O)c1ccc(NC(=O)COC(=O)c2ccc3c(c2)OCO3)cc1,-2
O=C(O)c1cc(S(=O)(=O)NCCCN2CCCC2=O)ccc1Cl,-5

compound,Mtb betalactam
Cc1c(C(=O)OCC(=O)NCC2CCCO2)oc2ccccc12 (stereo not drawn),0
COc1ccccc1-n1cnnc1SCC(=O)NC1CCCCC1,-1
CCN(C[C@H]1N[C@@](CC)(C(=O)OC)[C@H]2C(=O)N(C)C(=O)[C@@H]12)S(=O)(=O)c1ccccc1,-2
COc1cc2sc(-c3ccc(S(C)(=O)=O)cc3)c(C#CCO)c2cc1OC,-3
Cc1c(NC(=O)c2cccc(NC(=O)Cc3ccc(F)cc3)c2)c(=O)n(-c2ccccc2)n1C,-1
Cc1ccccc1C(=O)NCC(=O)NNC(=O)c1cccc(Cl)c1,2
COc1ccc(NC(=O)COC(=O)CC2CCCCC2)cc1,86
CCCCN1CC(=O)N2[C@H]3c4ccc(OC)cc4OC[C@@H]3[C@H](C(=O)OCC)[C@]2(C)C1=O,2
COc1ccc(CNC(=O)COC(=O)c2ccc(S(=O)(=O)NCc3ccco3)cc2)cc1,-1
Cc1ccc(S(=O)(=O)NCCNC(C)c2ccc(Br)cc2)cc1 (stereo not drawn),-5

compound,Mtb betalactam
O=C1NC[C@H](c2ccccc2)OC(=O)[C@H](Cc2ccc(F)cc2)C/C=C\C[C@@H]1CC(=O)N(CCO)Cc1ccccc1,-2
CC(C#N)OC(=O)c1cccnc1SCC(=O)Nc1ccc2c(c1)OCO2 (stereo not drawn),-3
COc1ccc(NC(=O)CN2C(=O)NC(c3ccccc3)(c3ccccc3)C2=O)cc1,-1
O=C(COc1cccc2ccccc12)N/N=C/c1ccco1,2
CCC(CO)Oc1cc(NC(=O)c2ccccc2F)c2ncn(C(C)C)c2c1 (stereo not drawn),4
CN(CC(=O)Nc1ccccc1Cl)C(=O)CN1C(=O)C2CC=CCC2C1=O (stereo not drawn),-6
O=C(COC(=O)c1cc2c(s1)CCCCC2)NC1CCS(=O)(=O)C1 (stereo not drawn),-14
CCOC(=O)C1=C(C)N(C)C(=O)NC1c1cccc2ccccc12 (stereo not drawn),-10
CCOc1ccccc1OCC(=O)Nc1cccc(S(=O)(=O)NC2=NCCCCC2)c1,3
CCOc1cc(C(=O)Nc2cc(OC)cc(OC)c2)ccc1OCC(=O)N1CCOCC1,1

compound,Mtb betalactam
NC(=O)c1ccc(NC(=O)COC(=O)CC2CC3CCC2C3)cc1 (stereo not drawn),-4
O=C(Nc1ccccc1)c1nc[nH]c1C(=O)NCCNC(=O)c1[nH]cnc1C(=O)Nc1ccccc1,3
O=C(CSc1nnc(COc2ccccc2Cl)o1)Nc1ccccc1,-5
CC(=O)c1ccc(NC(=O)COC(=O)CC2CC3CCC2C3)cc1 (stereo not drawn),-7
Cc1ccc(S(=O)(=O)N2CCN(C(=O)CCn3nc(C)c(C)c3C)CC2)cc1,-6
Cc1cc(C)cc(C(=O)NCC(=O)N(C)CCOc2ccccc2)c1,-8
Cc1ccc(OCCC(=O)OCC(=O)NC2CCCC(C)C2C)cc1 (stereo not drawn),-3
CCOC(=O)c1c(C)[nH]c(C)c1C(=O)COC(=O)/C=C/c1ccccc1[N+](=O)[O-],3
COC(=O)C1=C(c2ccc(F)cc2F)C[C@@H]2CC[C@H]1N2C(=O)NC(C)C,1
COc1ccc2c(c1)[C@@]13CCC=C[C@H]1[C@@H](C2)NCC3,-2

compound,Mtb betalactam
O=C(c1cn(-c2ccccc2)nc1-c1cccnc1)N1CCN(S(=O)(=O)c2ccccc2F)CC1,-7
CCCc1nc2ccccc2c(C(=O)OCC(=O)NC2CC2)c1CC,6
Cc1ccc(S(=O)(=O)N2CCN(C(=O)CN3C(=O)c4ccccc4C3=O)CC2)c(C)c1,-13
COc1ccc(CCNC(=O)COC(=O)Cc2c[nH]c3ccccc23)cc1OC,-8
C#CCOCCOCCOCCNc1nc(N2CCN(C(=O)[C@H]([C@@H](C)O)n3cc(CCCCN)nn3)CC2)nc(N2CCN(C(=O)[C@H](CCCCN)n3cc(CCCC)nn3)CC2)n1,-5
CC(=O)c1cccc(NC(=O)CSc2n[nH]c(-c3ccncc3)n2)c1,5
O=C(COC(=O)c1cc[n+]([O-])cc1)Nc1ccc(Cl)c(C(F)(F)F)c1,1
COc1ccc(C2=NS(=O)(=O)N(C)C(C(=O)Nc3ccc4c(c3)OCO4)=C2)cc1,5
CC(NC(=O)COC(=O)c1ccc(N2CCCC2=O)cc1)c1ccc(F)cc1 (stereo not drawn),-1
Cc1cc(C)cc(NC(=O)C(c2ccccc2)N2CCN(CC(=O)NC3CC3)CC2)c1 (stereo not drawn),-3

compound,Mtb betalactam
CCOc1cc(C(=O)O/N=C(\N)c2ccccn2)cc(OCC)c1OCC,6
CCOc1ncccc1C(=O)Nc1ccc(S(=O)(=O)N2CC(C)CC(C)C2)cc1 (stereo not drawn),3
Cc1cc(C)c(C(=O)NCC(=O)c2ccccc2)c(C)c1,-1
CCOC(=O)[C@H]1[C@H]2COc3ccc(OC)cc3[C@@H]2N2C(=O)CN(CC3CCCO3)C(=O)[C@@]12C (stereo partly drawn),1
OCC[C@H]1C[C@H](O)[C@@H](O)[C@]2(Cc3ccccc3O2)O1,-4
CC(Oc1ccc(Cl)cc1)C(=O)Nc1ccccc1N1CCOCC1 (stereo not drawn),-6
COc1ccccc1NC(=O)/C(=C\c1cccnc1)NC(=O)c1ccccc1,-1
O=S(=O)(Nc1ccccc1)c1ccc(S(=O)(=O)N2CCCC2)cc1,-8
Cc1nn(-c2ccccc2)c(C)c1C(=O)OCC(=O)Nc1ccccc1,-6
O=C(O)C1=CC[C@@H](c2ccc(Cl)cc2)N(S(=O)(=O)c2ccc(Cl)cc2)[C@H]1c1cccc(Cl)c1,-4

compound,Mtb betalactam
C[C@@H](NC(=O)c1nc[nH]c1C(=O)N1CCN(C(=O)OC(C)(C)C)CC1)c1ccccc1,1
O=C(COc1ccc2ccc(=O)oc2c1)Nc1cccc(S(=O)(=O)N2CCCCC2)c1,-7
O=C(O)c1cc(=O)c2ccccc2[nH]1,-4
O=C(C1CC1)N1CCN(c2ccc(O)cc2)CC1,0
COc1cccc(-c2ccc3ncnc(N(C)Cc4ccco4)c3c2)c1,97
COc1ccc(CC(=O)N(C)CC(=O)Nc2ccccc2Cl)cc1S(=O)(=O)N1CCOCC1,-5
CC(=O)NC12CC3CC(C1)CC(C(=O)N1CCN(C(=O)c4ccco4)CC1)(C3)C2,-4
CC[C@@H]1C=C(C(=O)O)[C@H](c2ccc(Cl)c(Cl)c2)N1S(=O)(=O)c1ccc(C)cc1,-9
CN(C)S(=O)(=O)c1ccc(NC(=O)CSc2nnc(-c3ccco3)n2N)cc1,4
CCOC(=O)[C@H]1[C@H]2COc3cc(OC)ccc3[C@@H]2N2C(=O)N(c3cccc(F)c3)C(=O)[C@@]12C,-3

compound,Mtb betalactam
CC(OC(=O)CCOc1ccccc1)C(=O)Nc1ccc(Cl)cn1 (stereo not drawn),-4
NCCCCC(=O)O,4
Cc1ccc(SCCSc2nc(C)cc(=O)[nH]2)cc1,-6
CC(C(=O)OCC(=O)N(C)C1(C#N)CCCCC1)N1C(=O)c2ccccc2C1=O (stereo not drawn),-4
CN(C)Cc1c(C(=O)N/N=C/C=C/c2ccccc2)nnn1-c1nonc1N,-6
CC(C)C(OC(=O)c1nsc(Cl)c1Cl)C(=O)NC1CCCCC1 (stereo not drawn),3
COc1ccc(N2CCN(C(=O)c3cn(Cc4ccccc4)nc3-c3cccnc3)CC2)cc1,-8
CCc1cc2c(COC(=O)CCNS(=O)(=O)c3cccc(C(F)(F)F)c3)cc(=O)oc2cc1O,-1
Cc1cccc(N2CCN(C(=O)c3oc4ccc(Br)cc4c3C)CC2)c1C,8
CCCn1c(N)c(C(=O)CSc2nc(N)cc(=O)[nH]2)c(=O)n(C)c1=O,-1

compound,Mtb betalactam
CN(C)C(=O)c1ccc(NC(=O)COC(=O)C2(c3ccccc3)CCCC2)cc1,4
COc1ccc(CN2CCc3c([nH]c4ccccc34)C2)c(OC)c1C,1
COc1ccc(C2=CC(=O)C[C@H](c3ccc4c(c3)OCO4)C2)cc1,85
Cc1ccc(NC(=O)c2ccc3c(c2)OCO3)cc1Cl,-6
COC(=O)[C@]1(Cc2ccccc2)N[C@H](CN(C)C(=O)Nc2ccc(Cl)cc2)[C@@H]2C(=O)N(Cc3ccccc3)C(=O)[C@@H]21,3
COc1cc(S(=O)(=O)N2CCOCC2)ccc1NC(=O)COC(=O)c1cc(OC)c(OC)c(OC)c1,-4
O=S(=O)(Nc1c(F)cccc1F)c1ccc(Cl)nc1,-9
O=S(=O)(c1c(F)cccc1F)C1CCN(S(=O)(=O)c2ccc3c(c2)OCCO3)CC1,8
COc1ccc(-c2ccc3oc(-c4ccsc4)cc(=O)c3c2)cc1F,0
CCN(CC(=O)NCc1cccs1)C(=O)COc1cccc(C(F)(F)F)c1,-7

compound,Mtb betalactam
CC1CC1C(=O)OCC(=O)NNC(=O)c1ccc([N+](=O)[O-])cc1 (stereo not drawn),4
Cc1noc(C)c1NC(=O)Nc1ccc2c(c1)C(=O)N([C@H](C)CO)C[C@H](C)[C@H](CN(C)C)O2,-1
CN(CC(=O)NCc1ccco1)CC(=O)Nc1c(Cl)cccc1Cl,6
O=C(CSc1nnc(NC(=O)c2ccc(F)cc2F)s1)NC1CC1,5
O=C(COC(=O)CC1CC2CCC1C2)NCc1ccc(Cl)cc1 (stereo not drawn),3
Cc1nn(-c2ccccc2)c(Cl)c1C(=O)NNC(=O)c1ccccc1O,10
Cc1ccc(NC(=O)COC(=O)c2ccco2)cc1S(=O)(=O)N1CCOCC1,-5
CC(C)(C)NC(=O)N1CCN(S(=O)(=O)c2ccc3c(c2)CCC3)CC1,1
CC1CCCCC12NC(=O)N(CC(=O)OCc1c(F)cccc1Cl)C2=O (stereo not drawn),-2
Cn1c(SCC(=O)Nc2ccc(N3CCOCC3)cc2)nnc1C(F)(F)F,1
O=C(CCC(=O)N1CCOCC1)NCCc1ccccc1,-10
CCc1ccc(N2CC(C(=O)OCc3csc(CC(=O)Nc4ccccc4C)n3)CC2=O)cc1 (stereo not drawn),-4

Screens: PubChem, Southern Research Specialized Biocontainment Screening Center
